eIF4H inh: inhibitors of RNA binding by human eIF4H | inhibition, % at 35 µM | AID 2012 | eIF4H fluorescence polarization binding assay | 290,000 compounds, 0.94% hits | Q15056;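 active means 50% or more with normal probe brightness, or confirmed in later tests; about a fifth of its hits are not listed in these tables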;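 further: calls also rest on retests at 20 µM and on dose response follow-up; 0% = protein and probe with vehicle and 100% = probe without protein; strong numbers were not always called active; many hits fall short of the cut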
Yeast UUG start: yeast start codon fidelity modulation. S. cerevisiae UUG-firefly luciferase reporter, luminescence/redox ratio. activity score, % at 18.7 µM. 350,000 compounds, 0.13% hits. AID 602363;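 active means replicate mean at a twofold rise or more, about +100% in these data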;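 further: firefly luciferase made from a UUG start codon reports start codon fidelity; reporter light over untreated wells divided by growth signal over untreated wells; some hits fall short of that in this replicate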
CSC inhib: cancer stem cell inhibition. cancer stem cell-like cells viability, luminescence. inhibition, % at 7.5 µM. 300,000 compounds, 1.1% hits;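 active means mean at 75% or more and at least half the replicates too; tested in HMLE shEcad cells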;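 further: 0% = median of negative and 100% = median of positive control wells; the first replicate is given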
PABP polyA inh: PABP-poly(A) binding inhibition. PABP-poly(A) RNA binding, fluorescence polarization. inhibition, % at 35 µM. 290,000 compounds, 1% hits. AID 2014;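 active means 50% or more with normal probe brightness, or confirmed in later tests; about a fifth of its hits are not listed in these tables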;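 further: calls also rest on retests at 20 µM and on dose response follow-up; controls were probe without protein and protein plus probe with vehicle; some compounds called inactive have numbers as strong as hits; many hits fall short of the cut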
MT1-MMP act inh: inhibitors of human MT1-MMP activation; 360,000 compounds, 0.061% hits; GFP/RFP ratio change, % at 20 µM; P50281; HT1080 RFP-PRO-GFP cells, GFP/RFP ratio fluorescence, overnight; percent of plate control window, DMSO zero; AID 651647;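 active means GFP/RFP ratio change of at least 30% with cell ATP level not reduced by more than half and red fluorescence within 50% of control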; further: strong numbers were not always called active
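Test system: HT1080 RFP-PRO-GFP cells; Benchmarks: DMSO and RFP-L50D-GFP cell wells; Timing: cells overnight before dosing, compound overnight, 37 °C, 5% CO2; Compound: one 20 µM compound dose with 1% DMSO; Read-out: GFP/RFP fluorescence ratio.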
Rce1 inhib: blocks yeast Ras-converting enzyme; Q03530; yeast membranes, quenched prenylated peptide cleavage fluorescence; calls only; 290,000 compounds, 0.27% hits; AID 2563;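 active means fall in fluorescence gain of 50% or more versus controls, with final raw signal at or below 3038400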;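 further: plate controls were neutral control wells for no effect and wells lacking membranes for full effect; tested at 10 µM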
Target sequence (Q03530 whole entry, looked up): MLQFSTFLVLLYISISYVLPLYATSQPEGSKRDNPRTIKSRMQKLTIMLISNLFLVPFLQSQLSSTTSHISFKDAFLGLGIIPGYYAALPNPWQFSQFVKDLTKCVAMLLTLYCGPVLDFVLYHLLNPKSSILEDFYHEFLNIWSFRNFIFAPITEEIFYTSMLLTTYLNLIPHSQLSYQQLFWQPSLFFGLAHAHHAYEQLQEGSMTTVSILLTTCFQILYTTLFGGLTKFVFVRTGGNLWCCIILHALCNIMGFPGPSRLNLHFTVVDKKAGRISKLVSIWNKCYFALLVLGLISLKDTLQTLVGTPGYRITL
Env fusion inh: HIV envelope-mediated fusion inhibition; HeLa-JRFL Env/CEM21 cell fusion, luciferase; inhibition, % at 12.3 µM; 360,000 compounds, 1.1% hits; AID 651610;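 active means mean replicate inhibition score of at least 50 and every replicate individually at or above 50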;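 further: 0% = plate neutral controls and 100% = maraviroc near 300 nM; one replicate is shown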
MT1-MMP act inh RFP: second read-out of MT1-MMP act inh, no call of its own (marks repeat the call); RFP signal change, %; measured here: RFP expression control read;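 0 = vehicle wells; hits needed this value within 50% of zero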
* = called active by the depositor; i = inactive; / = no result given. An unsorted share of the library. About 2.9% of those tested had a hit in this group.

SMILES | eIF4H inh | Yeast UUG start | CSC inhib | PABP polyA inh | MT1-MMP act inh | MT1-MMP act inh RFP | Rce1 inhib | Env fusion inh
COc1cccc(/C(O)=C2\C(=O)C(=O)N(c3ccccn3)C2c2ccccc2OC)c1 (stereo unspecified) | -6 | -8 | / | 6 | 14 | 8 | / | -32
O=C(NCc1ccco1)C(=O)NCC(c1ccco1)N1CCOCC1 (stereo unspecified) | -2 | / | -15 | 0 | -2 | 2 | i | -12
Cn1cccc1-c1nc2ccc(NC(=O)c3ccc([N+](=O)[O-])cc3)cc2[nH]1 | 8 | -3 | 2 | -3 | 17 | 5 | i | -165
Cc1ccc(CC(=O)Nc2ccccc2-c2ccccc2)cc1C | -1 | -12 | 47 | 9 | -5 | -8 | i | 7
Cc1ccccc1CNC(=O)c1ccccc1N(C)S(=O)(=O)c1ccccc1 | -12 | 7 | / | 4 | / | / | i | 10
N/C(=N/OC(=O)c1ccccc1Cl)c1ncc([N+](=O)[O-])s1 | 0 | -26 | 11 | -10 | 4 | -4 | i | -90
COc1ccc(N2CC(C(=O)Nc3nnc(SCCC4OCCO4)s3)CC2=O)cc1 (stereo unspecified) | 13 | -8 | -1 | 3 | 1 | 6 | i | -1
CC(C)CCNC(=O)C1CC(c2cccc(F)c2)=NO1 (stereo unspecified) | -1 | -19 | 9 | -4 | 4 | 2 | i | 25
O=C(Nc1nc2ccc(F)cc2s1)C1CC(=O)N(c2ccc3c(c2)OCCO3)C1 (stereo unspecified) | / | 11 | 9 | / | -12 | -2 | / | 18
CC(/C=C/c1ccc2c(c1)OCO2)=N/NC(=O)c1cccnc1 | -6 | -14 | 3 | 3 | 0 | 3 | / | 28
CC(C)OCCCNC(=O)CN1C(=O)CSc2ccc(S(=O)(=O)N3CCCCC3)cc21 | / | -12 | -11 | / | 1 | 2 | i | 2
Cc1cc(OCC(=O)NC(C)C)cc(C)c1Cl | 7 | -16 | / | -10 | 2 | 1 | i | -109
CCC(=O)Nc1ccc(S(=O)(=O)c2ccc(NC(=O)CC)cc2)cc1 | -7 | / | -2 | 1 | 4 | 0 | i | -34
c1ccc(CSc2nnc(Cc3ccccn3)o2)cc1 | 1 | -3 | -9 | 2 | 3 | 2 | i | -22
CCOC(=O)[C@H]1[C@H]2COc3ccc(C)cc3[C@@H]2N2C(=O)c3cc(Br)ccc3NC(=O)[C@@]12C | / | 6 | -1 | / | -16 | -11 | / | -65

A second format for some results above:
> Cc1cc(OCC(=O)NC(C)C)cc(C)c1Cl
- eIF4H inh: 7
- Yeast UUG start: -16
- CSC inhib: /
- PABP polyA inh: -10
- MT1-MMP act inh: 2
- MT1-MMP act inh RFP: 1
- Rce1 inhib: i
- Env fusion inh: -109

> CCC(=O)Nc1ccc(S(=O)(=O)c2ccc(NC(=O)CC)cc2)cc1
- eIF4H inh: -7
- Yeast UUG start: /
- CSC inhib: -2
- PABP polyA inh: 1
- MT1-MMP act inh: 4
- MT1-MMP act inh RFP: 0
- Rce1 inhib: i
- Env fusion inh: -34

> c1ccc(CSc2nnc(Cc3ccccn3)o2)cc1
- eIF4H inh: 1
- Yeast UUG start: -3
- CSC inhib: -9
- PABP polyA inh: 2
- MT1-MMP act inh: 3
- MT1-MMP act inh RFP: 2
- Rce1 inhib: i
- Env fusion inh: -22

(next part)
SMILES | eIF4H inh | Yeast UUG start | CSC inhib | PABP polyA inh | MT1-MMP act inh | MT1-MMP act inh RFP | Rce1 inhib | Env fusion inh
COc1cccc(C=N[C@@H](CO)[C@@H](O)c2ccc([N+](=O)[O-])cc2)c1O | 3 | -11 | -8 | 2 | 1 | 1 | i | -2
Cc1cc(Br)ccc1SCC(=O)OCC(=O)NC1CCCC1 | 3 | 10 | 4 | 4 | 0 | 3 | i | -54
CCC(=NC)C1=C(O)CC(c2ccccc2)CC1=O (stereo unspecified) | 8 | 6 | 9 | -4 | 0 | 4 | i | -43
COCc1cc(=O)[nH]c(SCCS(=O)(=O)c2ccc(Cl)cc2Cl)n1 | -1 | -2 | 68 | 7 | 5 | 3 | i | 7
Cc1cc(OCC(=O)OCC(=O)NCc2cccs2)ccc1Cl | / | -15 | / | / | 2 | 0 | / | 2
C=CCN1C(=O)N(c2ccc(F)cc2)C(=O)C1CC(=O)Nc1ccc(Cl)cc1 (stereo unspecified) | -10 | -1 | 0 | -3 | 10 | 2 | i | 9
Clc1ccc(OCCCCCN2CCCC2)c(Br)c1 | -4 | -20 | 23 | 9 | 1 | 0 | i | -9
O=C(N/N=C\c1ccc(OC(=O)c2cccs2)cc1)c1ccc(Cl)cc1 | 38 | / | 15 | 18 | 2 | 4 | i | 10
COc1ccc(CNC(=O)/C=C/c2ccc(S(=O)(=O)N3CCOCC3)cc2)cc1 | -6 | / | -8 | -4 | 2 | 2 | i | 0
CCOc1ccccc1N1CCN(C(=O)CCCN2C(=O)c3cccc4cccc(c34)C2=O)CC1 | 2 | / | 27 | 20 | 2 | 2 | i | 15
CN1CCN(CC(=O)N2CCn3c4c(c5cc(C6CCCCC6)ccc53)CCCC42)CC1 (stereo unspecified) | -2 | -2 | 46 | -7 | -41 | -26 | i | /
O=C(COC(=O)c1cc(Cl)cc(Cl)c1)NCCN1C(=O)CSC1=O | -6 | / | 3 | -3 | 3 | 11 | i | -51
COc1cccc(NC(=O)NC(=O)c2c(C)cc(Cl)nc2Cl)c1 | 0 | 9 | 17 | 0 | -6 | 1 | i | -3
Cc1nc2ccccc2nc1OCc1ccc([N+](=O)[O-])cc1 | -7 | / | 6 | -4 | 0 | -3 | i | 18
CC(=O)n1nc(-c2ccccc2)nc1NCc1cccs1 | -5 | -7 | 0 | -4 | 1 | 0 | i | -22
COc1ccc(N2CCN(C(=O)COC(=O)c3ccc(Cl)nc3)CC2)cc1 | / | -2 | 8 | / | -3 | 2 | / | -5
Cc1c(C)n(C(=O)CSc2nncn2C)c2ccccc12 | 2 | -9 | -2 | 4 | 6 | 4 | i | /
COc1ccc2cc(-c3csc(-c4cccnc4)n3)ccc2c1 | -1 | -10 | -3 | 12 | 3 | 2 | i | /
COc1cccc(NC(=O)CN(C)C(=O)c2cc3c(s2)CCC(C)C3)c1 (stereo unspecified) | / | 11 | -7 | / | -2 | 1 | i | -6
CCNC(=O)C(=O)c1c(-c2ccccc2)[nH]c2ccccc12 | -11 | / | -9 | 2 | -1 | -1 | i | 5
O=C1CCCN2N=C(SCC(=O)Nc3cccc(F)c3)SC2=N1 | 4 | -11 | / | 5 | 2 | -12 | i | 19
O=C(NCCOc1ccccc1)c1ccc2c(c1)OCO2 | 2 | -75 | 1 | 5 | 3 | 2 | i | /
CC(=O)N=c1sc2c3ccccc3ccc2n1C | -8 | -7 | 13 | -18 | 2 | 2 | i | -142
CN(C)CCn1nnc2c(=O)oc3ccccc3c21 | 1 | / | -11 | 12 | -1 | 4 | i | -3
Cc1[nH]c2ccccc2c1/C=N/NC(=O)c1cc(-c2cccs2)[nH]n1 | -1 | / | 23 | -8 | -3 | -10 | / | 39
COc1ccc(-c2nnco2)cc1OC | -8 | -13 | -2 | 0 | 2 | -1 | i | -112
Cc1cccc(OCC(=O)Nc2nonc2NC(=O)COc2cccc(C)c2)c1 | / | -5 | -20 | / | 7 | 1 | / | -57
O=C(O)c1ccc2c(c1)nnn2C1CCCCC1 | -8 | -17 | 15 | 6 | 0 | 0 | i | -56
O=C(CCC1CCCC1)N1CCN(C(=O)c2ccco2)CC1 | 6 | 14 | 9 | -9 | 12 | 2 | i | /
Cc1nc2c(C)cccc2cc1C(=O)N/N=C/c1ccc(C(=O)O)cc1 | 8 | / | 0 | -2 | 3 | 2 | i | -4
CCc1nc2ccc(C(=O)N3CCN(CC)CC3)cc2nc1CC | -12 | -12 | -13 | -4 | -1 | 3 | i | 6
Clc1ccc(Cl)c(-c2nc(-c3ccncc3)no2)c1 | -18 | 10 | -4 | -14 | 0 | 3 | i | -4
CCOC(=O)N/N=C/c1cn(Cc2ccc(Cl)cc2)c2ccccc12 | 6 | -16 | 29 | 0 | 19 | -11 | i | -187
CCN(CC(=O)Nc1ccc2c(c1)OCCO2)CC(=O)Nc1cc(C)on1 | -2 | -12 | -11 | -3 | -4 | -2 | i | /
O=S(=O)(NCc1ccc2c(c1)OCO2)c1c(F)cc(F)cc1Br | -6 | 24 | 2 | 2 | 0 | 1 | i | 3
Cc1cc(C)cc(NC(=S)NCCCN2CCOCC2)c1 | -4 | / | -15 | -10 | -1 | 1 | / | 2
CCOc1ccc2[nH]c(=O)c(CN(Cc3ccccc3)C(=O)N3CCCC3)cc2c1 | -13 | -14 | -18 | 1 | -10 | -3 | i | -57
Cc1ccc(SC2=C(C(=O)O)CCCC2)cc1 | 1 | -15 | -3 | 7 | 3 | 6 | i | -12
CC(C)=CCN1CCN(Cc2c(C)nn(C)c2Cl)CC1CCO (stereo unspecified) | 7 | / | 7 | -4 | -3 | 3 | i | 1
Cc1ccc(-n2c(C)nnc2SCC(=O)NNC(=O)c2ccco2)cc1 | 4 | / | 7 | -1 | 1 | 2 | i | 1
OC(c1ccccc1)c1nc(-c2cc(F)cc(F)c2)cs1 (stereo unspecified) | / | -1 | / | / | 2 | -6 | / | -19
CC(C)C(=O)N1CCC1(C)C(=O)NCc1cc(Cl)ccc1F (stereo unspecified) | / | -7 | / | / | 8 | 10 | / | -4
Cc1ccccc1OCCOC(=O)c1cc(S(=O)(=O)N2CCCCC2)ccc1N1CCOCC1 | / | -11 | / | / | -6 | -19 | / | 19
C=CCC1(O)C(=O)N2C(=C1C(=O)N1CCOCC1)c1ccccc1CC2(C)C (stereo unspecified) | -10 | -6 | -6 | 3 | 13 | 3 | i | 14
COc1ccccc1NC(=O)C1=C(C)Nc2ncnn2C1c1ccc(C)o1 (stereo unspecified) | 0 | -10 | / | 4 | 2 | 8 | i | /
N#C/C(=C(/O)Cc1ccccc1)P(=O)(c1ccccc1)c1ccccc1 | -2 | 3 | -7 | -7 | -5 | 4 | i | 7
O=C(N/N=C/c1ccncc1)c1cccc(N/N=C/c2ccncc2)c1 | -8 | / | -7 | 12 | -1 | 3 | i | -16
CN(C)c1cc[n+](CC(=O)Nc2ccc([N+](=O)[O-])cc2Cl)cc1 | 1 | -22 | -3 | -8 | 3 | 2 | i | -13
C=CCn1c(CCNC(=O)c2ccccc2F)nnc1SCC(=O)Nc1nc2ccccc2s1 | -5 | -9 | 8 | 9 | 6 | -4 | i | -19
COc1ccc(-n2nnnc2C(c2ccccc2OC(F)(F)F)N2CCN(C/C=C/c3ccccc3)CC2)cc1 (stereo unspecified) | / | -8 | / | / | -8 | -9 | / | 24
CCCNC(=S)NC1CC2CCCC(C1)N2CC(C)C (stereo unspecified) | 1 | -32 | 16 | 7 | -2 | 2 | i | /
CCN(CC)S(=O)(=O)c1cccc(C(=O)NCC(=O)OCC(=O)NCc2ccccc2)c1 | -7 | -6 | -2 | 33 | 1 | 3 | i | -84
NC(=O)c1c(N)sc2c1CCCCC2 | 20 | -11 | -5 | 48 | -1 | 1 | i | /
COCCC1CCCCN1C(=O)c1ccc(OC2CCN(C(C)=O)CC2)c(OC)c1 (stereo unspecified) | -4 | / | / | -6 | -2 | 3 | i | -1
Cc1ccc(SCCc2ccc(C)nc2)cc1 | -12 | / | 1 | -18 | 1 | -5 | i | -19
CCOc1ccc(NC(=O)CCNc2c(N3CCCC3)c(=O)c2=O)cc1 | -4 | -16 | -2 | -4 | -1 | 2 | i | /
O=C(Nn1c(-c2ccncc2)nc2ccccc2c1=O)c1ccc([N+](=O)[O-])cc1Cl | 3 | / | 0 | 11 | 5 | 5 | i | 15
COc1ccc(NC(=O)CSc2ccc(-c3sc(C)nc3C)nn2)cc1 | -3 | 0 | 4 | -7 | 6 | -10 | i | 3

Screening results as filed in PubChem.
